HPGD block – HPGD (human) dehydrogenase inhibition | purified HPGD, NADH fluorescence kinetic, PGE2 substrate | Potency, µM, for the others: top-dose activity change, negative = inhibition, actives largely listed as inhibitors | 150,000 tested, 4.3% active | AID 894; active = well fitted inhibition curve with a large enough effect (not every such curve was filed as active); inconclusive = small, poorly fitted or top-dose-only effect, or another doubt; inactive = no such curve, though single readings can be large or run the other way;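 further: top concentration of the series not given in the record; plate controls included wells without enzyme; inactives centre near -10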
Target sequence (P15428 whole entry, looked up): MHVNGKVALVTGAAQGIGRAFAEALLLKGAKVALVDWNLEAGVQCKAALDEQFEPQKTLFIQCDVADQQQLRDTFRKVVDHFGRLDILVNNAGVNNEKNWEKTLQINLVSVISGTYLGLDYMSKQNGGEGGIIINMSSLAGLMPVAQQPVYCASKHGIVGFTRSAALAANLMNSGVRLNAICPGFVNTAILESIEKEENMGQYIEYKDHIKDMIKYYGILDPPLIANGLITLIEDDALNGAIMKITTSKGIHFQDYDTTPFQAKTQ
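NADH formation kinetics: reaction with 30 uM PGE2 and 1 mM NAD+ (final), 20 nM enzyme, Tris-HCl pH 8 with Tween 20, after 15 min compound preincubation at room temperature. Fluorescence change, last versus first of five reads.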
Numbers without * were called inactive; ? = inconclusive; & = joins results of further samples. On the % scale 0 is the no-effect control and ±100 the full control effect; potency means the concentration at half of the fitted maximal effect. Only part of the results is shown. The share of hits here may be higher or lower than overall.

canonical_smiles | HPGD block
COc1ccc(C(=O)N/C(=C/c2cccs2)C(=O)NCCCn2ccnc2)cc1OC | -17%
N#CC(C#N)=C1C=CC=CN1/C(=C\c1ccco1)C(=O)c1ccc(-c2ccccc2)cc1 | -26%
COc1ccc(/C=C\C(=O)Oc2cccc(/C=N/NC(=O)Cc3ccc(OC)c(OC)c3)c2)cc1 | -23%
Cn1cc([N+](=O)[O-])c(C(=O)NCc2cc3ccccc3[nH]2)n1 | -11%
Cc1ccc(NS(=O)(=O)c2ccc(C(=O)N3CCCN(C)CC3)cc2)cc1 | 2%
COc1ccc(Oc2nc3c(c(=O)n(C)c(=O)n3C)n2Cc2cccc(OC)c2)cc1 | -7%
COc1ccc2c(C)cc(Sc3nnnn3-c3ccccc3)nc2c1 | -13%
Cc1ccc(NC(=O)CSc2nnc(-c3cccnc3)s2)cc1 | -14%
CSc1nc(-c2ccccc2)nc(N)c1C(C)=O | -18%
CCC1=C2CC[C@H]3C(=O)N(C)C(=O)[C@H]3[C@H]2[C@@]2(Cc3ccccc3)C(=NCC(=O)OC)OC(=O)N2C1=O | -8%
COc1ccc(NC(=O)CN2CCC(NC(=O)C3CCCCC3)CC2)cc1 | -7%
O=C(O)CSc1nnc2c3ccccc3c3ccccc3c2n1 | -8%
O=C(Nc1cccc(Cl)c1)OCCN1CCN(Cc2ccccc2)CCC1=O | -13%&4%
Cc1nn(C)c(C(=O)N/N=C/c2cc3c(cc2Br)OCO3)c1Br | -4%
CCOc1ccccc1NC(=O)CSc1nnc2c(CC)c(C)nc(N)n12 | -9%
Cc1cccc(-n2c(Cc3cc(=O)[nH]c(=O)[nH]3)nnc2SCC(=O)NCC2CCCO2)c1 (stereo unspecified) | -4%
COc1ccc(OC)c(NC(=O)c2cccnc2Sc2cc(C)ccc2C)c1 | -13%
COc1cc([C@H]2c3[nH]c4ccccc4c3C[C@H]3C(=O)N4[C@@H](c5cc(OC)c(OC)c(OC)c5)c5[nH]c6ccccc6c5C[C@H]4C(=O)N23)cc(OC)c1OC | -11%
CCc1nc(SCc2ccc(F)cc2)[nH]c(=O)c1C#N | 4.5µM*
O=C(COC(=O)c1ccc2c(c1)OCO2)NCc1ccc(Cl)cc1 | -2%
Cc1cc(NC(=O)CCC(=O)N(Cc2ccco2)C2(C(=O)NC3CCCCC3)CCN(C)CC2)no1 | -3%
COC(=O)[C@H](Cc1ccccc1)NC(=O)[C@@]1(C)C[C@@H]1[C@@H](NC(=O)OCc1ccccc1)c1ccccc1 | -9%&-7%
CCS(=O)(=O)c1ccc2oc(Nc3ccccc3C)nc2c1 | -9%
O=C(CNS(=O)(=O)c1cccs1)N1CCN(c2ccccn2)CC1 | -15%
CCCCC(=O)NN(C)c1nc(-c2ccccc2)nnc1C(F)(F)F | -15%

Continued:
canonical_smiles | HPGD block
COC(=O)C1=[N+]([O-])OC(C(=O)OC)C1c1c[nH]c2ccccc12 (stereo unspecified) | -10%
Cc1c(Cl)cccc1N(CC(=O)NC1CCCCC1)S(C)(=O)=O | -6%
O=C(O/N=C1/CCSc2ccccc21)c1ccccc1 | 18µM*
COC(=O)c1ccc2nc(C)c(C)nc2c1 | -9%
CC(=O)n1nc(-c2ccco2)nc1N | 1%
CCn1c2ccccc2c2nnc(SCC(=O)N3CC(C)OC(C)C3)nc21 (stereo unspecified) | 14µM*
Cn1c(=O)c(-c2ccccc2N)nc2ccccc21 | -8%
O=C(c1ccccc1)N1CCN(c2ccc(Cl)cc2)CC1 | -28%
CCNc1ccc(S(N)(=O)=O)cc1[N+](=O)[O-] | -6%
COc1ncc2nc(-c3ccc(F)cc3)c(=O)n(C[C@H]3CCCO3)c2n1 | ?
CCOC(=O)C1=C(N)OC2=C(C(=O)CC(C)(C)C2)C1c1cccnc1 (stereo unspecified) | 1%
COc1ccc(Br)cc1S(=O)(=O)N1CCCC1 | -1%
CC(=O)c1c(C)[nH]c(C(=O)OCC(=O)Nc2cc(C)on2)c1C | -3%
Cc1nn(CCCC(=O)NCc2ccc(F)cc2)c(C)c1[N+](=O)[O-] | -9%
CC1C/C(=C\c2cccnc2)C(=O)/C(=C/c2cccnc2)C1 (stereo unspecified) | -10%
O=C1C2C3C=CC(C4CC34)C2C(=O)N1/N=C/c1cccs1 (stereo unspecified) | 4.5µM*
Cc1ccccc1OCCN1C(=O)NC2(CCc3ccccc32)C1=O (stereo unspecified) | -21%
CCOc1ccc(Cc2nn[nH]n2)cc1 | -8%
CC(=O)NC(CCS(C)(=O)=O)C(=O)Nc1c(C)cccc1C (stereo unspecified) | -17%
O=C(CN1CC(=O)Oc2ccccc21)OCC(=O)c1cccc(Br)c1 | -7%
CN(C)c1ccc([C@@H]2[C@@H]([N+](=O)[O-])[C@H]3C=Cc4ccccc4N3[C@H]2C(=O)c2ccc(Cl)cc2)cc1 | -9%
O=C(Oc1ccc2c(c1)CCC2)N1CCOCC1 | -2%
O=C(Oc1ccc2c(c1)OCO2)c1ccncc1 | -4%
O=C(CSc1nccn1-c1ccc(F)cc1)Nc1ccc2c(c1)OCO2 | -15%
COc1cc2c(cc1OC)C(C(=O)Nc1ccc3c(c1)OCCO3)C1c3ccccc3CCN1C2=O (stereo unspecified) | -11%

Later entries:
canonical_smiles | HPGD block
CC(C)(CO)Nc1nc(Nc2ccccc2)nc(Nc2ccccc2)n1 | -15%
CC(=O)OCC#CCSc1nc2ccccc2n1C | 3%
CCOC(=O)c1c(NC(=O)CN2C(=O)NC3(CCC(C)CC3)C2=O)sc(C)c1-c1ccc(C)cc1 (stereo unspecified) | -20%
Fc1ccc(C2CC(c3ccccc3)Nc3ncnn32)cc1 (stereo unspecified) | -9%
COc1ccc(CCNC(=O)Cn2c(=O)cnc3ccccc32)cc1 | ?
CCOC(=O)c1c(CSc2nc(C)cc(C)c2C#N)n(C)c2cc(Br)c(OC(C)=O)cc12 | -4%
Cc1ccccc1NC(=O)Nc1ccccc1C(=O)NCc1ccccc1 | -7%
Nc1cccc2nc3ccccc3cc12 | ?
CC12CCC(C(=O)Nc3cccnc3)(CC1=O)C2(C)C (stereo unspecified) | 10%
CN(C)/C=C(/C(=O)c1ccc(Cl)cc1)S(=O)(=O)c1ccccc1 | -13%
CC[n+]1c(-c2ccc(C)cc2)csc1Nc1c(C)n(C)n(-c2ccccc2)c1=O | 3%
O=C1NCCN1Cc1ccccc1F | -24%
COc1ccc(NC(=O)CCCc2c[nH]c3ccccc23)cc1OC | 3%
OCCn1c(SC2CCCCC2)nc2ccccc21 | 0%
COC(=O)N1C(c2ccccc2)=Cc2ccccc2C1CC(C)=O (stereo unspecified) | -30%
COC(=O)CN1C(=O)Nc2ccc(Br)cc2C1c1ccccc1Cl (stereo unspecified) | -12%
CC(=O)c1cccc(NC(=O)CSCc2ccccc2)c1 | -13%
CCOC(=O)C1CCN(S(=O)(=O)c2c(C)n[nH]c2C)CC1 | -3%
COc1ccc(N2CCN(c3ccc(N)cc3C#N)CC2)cc1 | -11%
O=C(Cn1c(=O)oc2cc(S(=O)(=O)N3CCc4ccccc43)ccc21)NC1CCCC1 | -10%
CCCCCn1c2nc3ccccc3nc2c2c(=O)n(CC(C)C)cnc21 | ?
COc1ccc(NC(=O)CSc2nncn2C)cc1OC | -8%
Cc1onc(-c2ccccc2)c1C(=O)Nc1ccc2c(C)cc(=O)oc2c1 | ?
Cc1ccc(S(=O)(=O)N2CCC(=O)N(C(COCc3cccc(C)c3)C(C)C)CC2)cc1 (stereo unspecified) | -18%
O=C(NCc1nnc(SC/C=C/c2ccccc2)o1)c1ccco1 | ?

Carrying on.
mol,HPGD block
Cc1ccc(C)c(NC(=O)CCN2CC(C)OC(C)C2)c1 (stereo unspecified),0%
O=C(CSCc1ccccc1)N/N=C/c1cc2c(cc1Br)OCO2,-10%
C/C=C(/C)C#N,-18%
Cc1ccc(-c2[nH]c3ccccc3c2C(C[N+](=O)[O-])c2ccco2)cc1 (stereo unspecified),-29%
CCCn1nnnc1NC(=O)c1ccc(C)cc1Cl,?
Cc1ccccc1NC1=C(Cl)C(=O)OC1OC(C)C (stereo unspecified),-1%
OCCCCNCc1ccc(OCc2ccc(Cl)cc2Cl)cc1,-7%
O=C(CC1Oc2ccccc2NC1=O)NCCCN1CCCC1=O (stereo unspecified),-7%
Cc1nc(Cl)sc1C(=O)Nc1cccc2ccccc12,-10%
COc1ccc(OC)c(NC(=O)Cn2c(=O)n(CC(=O)NCc3ccco3)c(=O)c3ccccc32)c1,-13%
COCCNC(=O)c1ccccc1NC(=O)c1cc(OC)cc(OC)c1,-2%
c1ccc(C2OCC3(CO2)COC(c2ccccc2)OC3)cc1 (stereo unspecified),2%

Four entries picked at random from the list so far, as already listed:
mol,HPGD block
COc1ccc(OC)c(NC(=O)Cn2c(=O)n(CC(=O)NCc3ccco3)c(=O)c3ccccc32)c1,-13%
Cc1nc(Cl)sc1C(=O)Nc1cccc2ccccc12,-10%
COCCNC(=O)c1ccccc1NC(=O)c1cc(OC)cc(OC)c1,-2%
OCCCCNCc1ccc(OCc2ccc(Cl)cc2Cl)cc1,-7%

4 of these compounds in another layout:
O=C(Nc1cccc(Cl)c1)OCCN1CCN(Cc2ccccc2)CCC1=O
  HPGD block = -13%&4%

CCCn1nnnc1NC(=O)c1ccc(C)cc1Cl
  HPGD block = ?

COCCNC(=O)c1ccccc1NC(=O)c1cc(OC)cc(OC)c1
  HPGD block = -2%

COc1ncc2nc(-c3ccc(F)cc3)c(=O)n(C[C@H]3CCCO3)c2n1
  HPGD block = ?

Additional entries.
mol,HPGD block
CC(=O)NC(Cc1ccc(F)cc1)C(=O)N1CCN(C(=O)NCc2ccccc2)CC1 (stereo unspecified),-10%
ON=Cc1cccn1-c1ccccc1,-10%
CCCCCNC(=O)c1ccccc1SC,14µM*
Cc1cc(NC(=O)c2cc(-c3ccc(C)c(C)c3)nc3ccccc23)no1,?
COc1ccc(-c2nnc(-c3cc(OC)c(OC)c(OC)c3)o2)cc1OC,?
CC(C)OCCCNc1ncc2c(n1)CC(c1ccc(N(C)C)cc1)CC2=O (stereo unspecified),-17%
OC1(c2ccc(F)cc2)CCN(Cc2ccccc2)C1 (stereo unspecified),-2%
COc1ccc(C(=O)c2sc(NC(C)C)nc2N)cc1OC,-28%
CCOc1cc(C(=O)NCC2CCCO2)cc(OCC)c1OCC (stereo unspecified),-6%
COc1ccc(Cc2nc3ccc(S(=O)(=O)N4CCOCC4)cc3[nH]2)cc1,-10%
CCCCC(=O)Nc1nnc(-c2ccc(OC)cc2)s1,?
COc1ccc(S(=O)(=O)n2ccc(-c3cnc(-c4ccccc4)s3)n2)cc1,?

Taken from above:
In HPGD block, `O=C(COC(=O)c1ccc2c(c1)OCO2)NCc1ccc(Cl)cc1` is listed with -2%
In HPGD block, `CC(=O)n1nc(-c2ccco2)nc1N` is listed with 1%
In HPGD block, `O=C(O)CSc1nnc2c3ccccc3c3ccccc3c2n1` is listed with -8%

(next part)
mol,HPGD block
O=C(Nc1ccccn1)c1cccs1,-20%
Cc1nn2c(=O)c(NC(=O)c3ccc(F)cc3)cnc2s1,-1%
COC(=O)N1CCN(c2ccc(OC)cc2)CC1,-14%
O=C(NCC1CCCO1)C1CC(=O)N(c2ccc(F)c(Cl)c2)C1 (stereo unspecified),-9%
CNC(=O)CSc1nnnn1-c1cc(C)ccc1C,-8%
O=C(Nc1ccc(Cl)c(Cl)c1)Nc1ccc(Br)cc1F,-11%
O=C1NC2(CCCCC2)N=C1c1ccc(F)cc1,-4%
CCCCNc1nc(-c2ccccc2)c(C(=O)OCC)cc1C#N,?
NC(=O)COC(=O)c1cc(S(=O)(=O)N2CCOCC2)ccc1N1CCCCC1,-17%
Cc1ccc(-c2noc(CSc3nnc(Cc4ccccc4)n3-c3cccc(C)c3)n2)cc1,-13%
CCOC(=O)/C(C(N)=NCc1ccco1)=C(/O)c1ccccc1,-7%
CCN1CCN(Cc2c(C)[nH]c3ccc(OC)cc3c2=O)CC1,-20%

Continued.
mol,HPGD block
COc1ccc(S(=O)(=O)NC2CCCC2)cc1Br,-17%
COc1ccccc1N1CCN(CCCCOc2ccc(F)cc2)CC1,-14%
CCN(c1ccccc1)S(=O)(=O)c1cccc(C(=O)O)c1,-3%
CCOC(=O)N1CCC(N2CCN(S(=O)(=O)c3ccc4ccccc4c3)CC2)CC1,-6%
O=C(CN1C2=NCCCN2c2ccccc21)c1ccc(Cl)cc1Cl,-6%
COc1nc(-c2ccccc2)cc(-c2ccc(OC)c(OC)c2)n1,?
Cc1cc(N2CC(C(=O)O)CC2=O)ccc1Br (stereo unspecified),-2%
CCCCn1c(SCC(=O)c2ccccc2)nc2ccsc2c1=O,-1%
Cn1/c(=N/N=C/c2ccc(Cl)c([N+](=O)[O-])c2)sc2ccccc21,-10%
Brc1ccc(-c2noc(COc3ccc4ccccc4c3)n2)o1,-9%
Cc1ccc(CSc2nnc(-c3ccc4c(c3)OCO4)o2)cc1,-27%
Cc1ccc(NC(=O)CCCCCC2NC(=O)NC2C)cc1 (stereo unspecified),-3%

Other records follow:
mol,HPGD block
COc1cc(C(=O)O)ccc1OC(C)=O,-12%
CC(C(=O)Nc1cc([N+](=O)[O-])ccc1Cl)N1CCN(c2ccc(O)cc2)CC1 (stereo unspecified),-5%
COc1ccc(CC(=O)Nc2ccc(S(=O)(=O)Nc3cc(C)on3)cc2)cc1,?
Cc1nnc(SCC(=O)NC2CCCCC2)n1C1CCCCC1,-4%
CC1(C)C(c2ccc(Cl)cc2)=[N+]([O-])C2(CCCC/C2=N\O)N1O (stereo unspecified),-2%
Cc1cc(C(F)F)n2nc(C(=O)NCc3ccccc3F)nc2n1,-9%
CCCCNCCOCCOc1ccc(F)cc1,-9%

Screens: PubChem BioAssay, National Center for Advancing Translational Sciences (NCATS)
